# Compound activity as filed in PubChem.
# KCNQ2 pot: potentiators of rat KCNQ2 potassium channel; O88943; CHO-K1 KCNQ2, FluxOR thallium flux fluorescence; hits give high values; B-score at 10 µM; 0.54% of 310,000 active;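 active means fluorescence ratio B-score at least 3 SD of library B-scores, with initial fluorescence B-score within 3 SD, cut at about 5.3 in these data; same plate scores as AID 2156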;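 further: B-score of peak minus minimum over baseline fluorescence ratio after K+ and Tl+ stimulus; positive B-score means potentiation of KCNQ2 with more thallium influx and brighter signal; only the inactives scoring about 0 or higher are listed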
# Target sequence (O88943 whole entry, looked up): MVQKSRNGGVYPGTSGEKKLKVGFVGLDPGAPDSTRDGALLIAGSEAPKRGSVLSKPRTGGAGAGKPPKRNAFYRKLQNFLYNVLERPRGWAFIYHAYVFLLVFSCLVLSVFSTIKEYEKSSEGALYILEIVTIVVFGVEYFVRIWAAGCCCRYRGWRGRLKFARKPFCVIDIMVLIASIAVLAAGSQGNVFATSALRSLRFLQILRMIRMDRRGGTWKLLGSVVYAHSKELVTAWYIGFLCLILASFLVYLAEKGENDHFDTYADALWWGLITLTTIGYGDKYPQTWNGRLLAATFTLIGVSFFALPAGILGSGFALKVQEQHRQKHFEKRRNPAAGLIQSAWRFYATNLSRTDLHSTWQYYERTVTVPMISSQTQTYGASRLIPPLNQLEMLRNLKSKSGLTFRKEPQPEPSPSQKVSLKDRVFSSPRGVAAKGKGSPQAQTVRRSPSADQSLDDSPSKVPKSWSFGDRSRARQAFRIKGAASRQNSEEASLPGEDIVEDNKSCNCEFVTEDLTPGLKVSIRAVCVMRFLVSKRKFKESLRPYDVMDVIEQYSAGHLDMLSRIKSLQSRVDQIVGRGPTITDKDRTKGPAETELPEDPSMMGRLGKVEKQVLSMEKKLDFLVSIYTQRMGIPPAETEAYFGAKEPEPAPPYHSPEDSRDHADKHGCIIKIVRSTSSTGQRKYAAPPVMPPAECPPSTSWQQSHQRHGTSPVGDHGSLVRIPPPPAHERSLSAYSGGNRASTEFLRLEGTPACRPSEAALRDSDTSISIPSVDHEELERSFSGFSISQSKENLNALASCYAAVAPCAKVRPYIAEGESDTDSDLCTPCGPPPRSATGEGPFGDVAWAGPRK
# KCNQ2 pot baseline: further read-out of KCNQ2 pot, marked with its call; B-score; compound at 10 µM; measured here: initial fluorescence intensity artifact check;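 brightness before thallium and not channel activity; 0 = typical well and far values either way flag optical interference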
# Active calls of the source: *. This is a subset. The share of hits here may be higher or lower than overall.
SMILES,KCNQ2 pot,KCNQ2 pot baseline
CCn1nc(C)c(/C=C/C(=O)Nc2ccc(C)cc2C)c1C,0.1,0.26
O=C(Nc1ccccc1)OCN1C(=O)c2ccccc2C1=O,0.44,-2.47
Fc1cc2[nH]cnc2cc1Cl,0.65,0.63
c1cncc(C(c2nnnn2C2CCCCC2)N2CCCCC2)c1 (stereo unspecified),1.41,2.23
CCCCC(=O)N1CCN(c2nc3ccc(Cl)cc3s2)CC1,0.15,0.24
O=c1nc(N/N=C/c2c[nH]c3ccccc23)cn[nH]1,0.78,0.7
CC(=O)Nc1ccccc1C(=O)N1CCN(Cc2ccccc2)CC1,1.28,0.41
CCN(CC)C1CCN(C(=O)c2cc(COc3cccc4cccnc34)on2)C1 (stereo unspecified),0.38,0.11
CCOc1nc2cnccc2n(CC(=O)Nc2ccc(C)c(C)c2)c1=O,0.4,-0.78
O=C(CCN1C(=O)c2ccccc2S1(=O)=O)NCc1ccccc1,0.1,1.79

# A second format for three compounds above.
SMILES	KCNQ2 pot	KCNQ2 pot baseline
O=c1nc(N/N=C/c2c[nH]c3ccccc23)cn[nH]1	0.78	0.7
CC(=O)Nc1ccccc1C(=O)N1CCN(Cc2ccccc2)CC1	1.28	0.41
CCN(CC)C1CCN(C(=O)c2cc(COc3cccc4cccnc34)on2)C1 (stereo unspecified)	0.38	0.11

# Continued.
SMILES,KCNQ2 pot,KCNQ2 pot baseline
N#CCSc1nnc(-c2c[nH]c3ccccc23)o1,0.13,0.19
CN(CC(=O)Nc1ccccc1Cl)C(=O)COC(=O)C1CC1,1.05,-0.39
COc1ccc(-c2nc(NC(=O)Cn3ccc(C(F)(F)F)n3)sc2C)cc1,0.23,-0.39
Cn1c(C(=O)NCc2ccco2)cc2c(=O)[nH]c3ccccc3c21,0.14,-0.93
OCCCc1cn(Cc2ccccc2)c2ccccc12,0.84,-0.04
COc1cccc(C(=O)Nc2cccnc2)c1,1.2,0.46
CCCCn1nc(NC(=O)COC)c2cc3cc(OC)ccc3nc21,0.52,0.55
CCOC(=O)c1c(-n2cnnn2)sc(C)c1C,1.28,-0.45
CCOc1ccccc1NC(=O)CSc1nnc(CNC(=O)c2c(F)cccc2Cl)o1,0.81,-0.83
O=C(CNS(=O)(=O)c1ccc(Br)cc1)N1CCOCC1,0.02,-0.94

# 4 of the compounds above, field by field.
> OCCCc1cn(Cc2ccccc2)c2ccccc12
  KCNQ2 pot = 0.84 | KCNQ2 pot baseline = -0.04

> COc1cccc(C(=O)Nc2cccnc2)c1
  KCNQ2 pot = 1.2 | KCNQ2 pot baseline = 0.46

> CCCCn1nc(NC(=O)COC)c2cc3cc(OC)ccc3nc21
  KCNQ2 pot = 0.52 | KCNQ2 pot baseline = 0.55

> CCOC(=O)c1c(-n2cnnn2)sc(C)c1C
  KCNQ2 pot = 1.28 | KCNQ2 pot baseline = -0.45

# Other structures:
SMILES,KCNQ2 pot,KCNQ2 pot baseline
C=CCn1c(O)c(CN2CCOCC2)c(C)c(C#N)c1=O,0.39,0.04
Nc1nc(-c2ccccc2)c(N=Nc2cccnc2)s1,0.76,-0.79
Cc1ccc(NC(=O)Cc2cn(C)c3ccccc23)cc1F,2.53,-1.04
CCOC(=O)N1CCC(=NNC(=O)c2ccc(O)cc2)CC1,0.01,0.36
CCCCN(Cc1ccccc1)c1ncnc2nc[nH]c12,0.77,-0.39
Cn1cc(S(=O)(=O)N2CCCC2)cc1C(=O)NCc1ccccc1,0.91,-0.04
O=C(CSCc1ccc(C(=O)O)cc1)Nc1ccc2ccccc2c1,2.3,-0.52
Cc1ccc(-c2nn(C)c(=O)c3ccccc23)cc1CN1CCCCC1,0.92,-0.28
N#C/C(=C\c1cccs1)c1nc2ccccc2[nH]1,2.13,-0.81
CCn1c(C)nc2cc(S(=O)(=O)Nc3ccc(C)cc3)ccc21,1.15,-1.06
COc1ccccc1N1CCN(C(=O)CSc2nnc(NC(=O)c3ccco3)s2)CC1,0.85,-0.47
COc1ccc(C(=O)N2CCN(CCNC(=O)C(=O)Nc3ccc(Br)cc3)CC2)cc1,0.1,2.4
CCCC1C(=O)N(Cc2ccccc2)C(=O)CC1C (stereo unspecified),0.41,0.96
CC(C)(C)N1[C@@H](CC(=O)O)c2cc(C(F)(F)F)ccc2S1(=O)=O,0.87,-0.12
CC(NC(=O)C(=O)NCCN1CCN(C(=O)c2ccc([N+](=O)[O-])cc2)CC1)c1ccccc1 (stereo unspecified),0.68,0.87
CC(C)c1nnc(NC(=O)c2cccc(-n3cnnn3)c2)s1,1.36,-0.26
COc1ccc(-c2cc3nc(C)n(N)c(=O)c3s2)cc1,0.38,-0.22
O=C(CSc1nnc(Cc2cccs2)n1-c1ccc(Cl)cc1)NCc1ccc2c(c1)OCO2,0.96,0.55
COc1ccc(CNC(=O)c2ccc(Cn3nc(C)cc3C)o2)cc1,2.29,-1.46
COc1ccc(OC)c(C2=NS(=O)(=O)N(C)C(C(=O)Nc3ccc(F)cc3F)=C2)c1,0.22,-0.46
O=C1C(c2ccnc3ccccc23)=C(O)c2ccccc21,0.02,1.04
CC(C)Cc1nnc(NC(=O)C2CC(=O)N(Cc3ccccc3)C2)s1 (stereo unspecified),2.78,-2.69
CCc1ccc(NC(=O)c2ccc(NC(=O)C3CCCO3)cc2)cc1 (stereo unspecified),0.59,-1
C#CCOCCOCCOCCNc1nc(N2CCN(C(=O)[C@H](Cc3ccc(O)cc3)n3cc([C@@H](N)C(C)CC)nn3)CC2)nc(N2CCN(C(=O)[C@H](Cc3cc4ccccc4[nH]3)n3cc([C@@H](N)CC(C)C)nn3)CC2)n1 (stereo partly specified),0.69,1.86
Cc1cccc(/C=N/NC(=O)c2cc(C)nc3ccccc23)n1,1.03,0.87
N=c1oc2ccccc2cc1C(=O)NC1CCCCCC1,0.26,1.76
c1ccc2nc(-c3ccc(-n4ccnc4)cc3)ccc2c1,1.78,-1.42
Cn1cc([N+](=O)[O-])c(C(=O)Nc2cc(Oc3cccnc3)cc([N+](=O)[O-])c2)n1,0.04,-1.26
CCOc1ccc(CN2CCN(S(=O)(=O)c3ccc(NC(C)=O)cc3)CC2)cc1,1.98,0.4
CCCN(CCC)C(=S)NC(=O)c1ccc(Cl)cc1Cl,15.6*,-0.01*
CCN(CC)S(=O)(=O)c1ccc(N/N=C(\C)c2ccncc2)c([N+](=O)[O-])c1,1.28,-0.34
COc1nc(Cl)cn(-c2ccc(Cl)cc2)c1=O,0.04,0.92
O=C(NCc1cccnc1)c1cnn2ccccc12,0.36,-0.19
COc1ccc(/C=C(/NC(=O)c2ccccc2)C(=O)N/N=C/c2cccs2)cc1OC,0.26,-0.52
Cc1noc(-c2ccccc2OC(=O)c2ccccc2)n1,0.89,0.73
COc1ccc(N(CC(=O)N2CCN(C)CC2)S(=O)(=O)c2ccccc2)cc1,0.05,-0.57
CCC1Sc2ccc(S(=O)(=O)CCC(=O)Nc3cccc(Br)c3)cc2NC1=O (stereo unspecified),0.13,0.38
CCN(CC)c1ccc(NC(=O)c2ccc(=O)[nH]c2)cc1S(=O)(=O)Nc1ccccc1OC,0.97,-0.28
CCOc1ccc(N(CC(=O)NCc2ccc(Cl)cc2)S(=O)(=O)c2ccccc2)cc1,0.5,-0.03
COc1ccc(C2CC(c3ccc(Cl)cc3)Nc3nc(NC(=O)c4ccco4)nn32)cc1 (stereo unspecified),1.22,-0.36
Cc1ccc(C(=O)CC(=O)COc2ccc(Cl)cc2C)cc1,0.07,-0.37
O=C(CCC1CCCN(C(=O)c2ccco2)C1)NCc1ccccc1F (stereo unspecified),0.12,-0.18
O=C(NNC(=O)c1ccccc1)C(=O)N1CCCCC1,1.73,-2.67
Cn1c(SCC(=O)NC2CCCC2)nnc1-c1ccccn1,0.06,-0.83
CC1(c2ccc(Cl)cc2)NC(=S)N2C1NC(=S)N2c1ccccc1 (stereo unspecified),0.02,0.59
O=S(=O)(c1cccs1)N1CCN(Cc2ccccc2)CC1,0.22,2.9
O=C(CSc1ccc2nnc(-c3ccc(F)cc3)n2n1)N1CCCc2ccccc21,0.14,1
CC(C)(C)c1ccc(OCC(O)CN2CCN(c3ccccn3)CC2)cc1 (stereo unspecified),1.04,-1.07
CCC(CC)N1CCN(CC2CC=CCC2)CC1 (stereo unspecified),0.11,0.04
NC(=O)NCc1cccc(Cl)c1,1.09,-0.47

# Compound profiles (already shown). Screens in order: KCNQ2 pot | KCNQ2 pot baseline
# Entry for Cn1c(SCC(=O)NC2CCCC2)nnc1-c1ccccn1 → 0.06 | -0.83
# Entry for N#CCSc1nnc(-c2c[nH]c3ccccc23)o1 → 0.13 | 0.19

# The main list resumes, repeating the 4 entries before the break.
SMILES,KCNQ2 pot,KCNQ2 pot baseline
O=C(CSc1ccc2nnc(-c3ccc(F)cc3)n2n1)N1CCCc2ccccc21,0.14,1
CC(C)(C)c1ccc(OCC(O)CN2CCN(c3ccccn3)CC2)cc1 (stereo unspecified),1.04,-1.07
CCC(CC)N1CCN(CC2CC=CCC2)CC1 (stereo unspecified),0.11,0.04
NC(=O)NCc1cccc(Cl)c1,1.09,-0.47
COCC(=O)N(Cc1nc2sc(C)c(C)c2c(=O)[nH]1)C1CCCCC1,0.78,-1.39
CC(=O)N1CN(C2CCCC2)Cc2c1sc1c2CCCC1,0.19,-0.94
CCOc1ccc2nc(SCC)[nH]c2c1,1.26,0.35
CC1CCN(c2nc3ccc(C(=O)O)cc3s2)CC1,0.05,0.13
COc1ccc(C)cc1NC(=O)COC(=O)C1CC1,0.56,-0.17
O=C(NCCO)c1ccc(Cl)c(Cl)c1,0.3,0.41
O=C(CCn1c(=O)oc2ccccc21)N1CCN(c2ccc(F)cc2)CC1,0.43,-2.29
c1ccc(OCCSc2ncnc3nc[nH]c23)cc1,1.09,0.63
Cc1cc(C)nc(-n2nc(C)cc2NC(=O)CN2CCCC(C)C2)n1 (stereo unspecified),0.73,1.02
Cc1cc(C(=O)Nc2cccc(NC(=O)c3ccco3)c2)ccc1[N+](=O)[O-],1.9,0.36
Cc1onc(-c2ccccc2Cl)c1C(=O)NCc1ccc(S(N)(=O)=O)cc1,0.95,-1.5
CC1Oc2ccccc2N(Cc2cccnc2)C1=O (stereo unspecified),1.7,1.42
CCOC(=O)c1cccc(NC(=O)c2cncc(Br)c2)c1,1.57,-0.39
CCOc1cccc(/C=C2\NC(=S)N(c3ccccc3)C2=O)c1O,0.46,-0.71
Cc1ccc(C(=O)Nc2cccc(C(=O)O)c2)cc1,1.5,2.54
COC(=O)c1cc(S(=O)(=O)NCc2ccc3c(c2)OCO3)c[nH]1,0.94,-0.01
CC(=O)Nc1ccc(C(=O)Nc2cccc(S(=O)(=O)NC3=NCCC3)c2)cc1,0.68,0.06
O=C(Cn1c(=O)oc2ccccc21)Nc1ccccc1Cl,0.25,-0.01
Cc1nc2c(c3c1[nH]c1ccccc13)C(O)CC(C)(C)C2 (stereo unspecified),1.41,-0.09
C/C(=N\Nc1cccc(C(=O)O)c1)c1ccc(Cl)s1,2.5,-0.54
COc1cccc(OC)c1OCCCCn1cnc2ccccc2c1=O,0.37,1.39
CC1CC(C)CN(S(=O)(=O)c2cccc3nsnc23)C1 (stereo unspecified),1.02,0.53
Cc1ccc(/C=N/NC(=O)c2cc3ccccc3cc2O)o1,16.1*,1.46*
c1ccc(-n2ncc3c(NCc4ccc5c(c4)OCO5)ncnc32)cc1,0.6,1.2
CN(Cc1ccccc1)S(=O)(=O)c1ccc(OCC(=O)NCc2cccnc2)cc1,0.06,-2.91
CCN(CC)S(=O)(=O)c1ccc(N2CCN(CCOc3ccc(OC)cc3)CC2)nc1,1.25,-1.64
O=C(NCCN1C(=O)CSC1=O)C1CC(=O)N(c2ccccc2)C1 (stereo unspecified),1.82,0.13
Cc1ccc(C(=O)CCC(=O)OCC(=O)Nc2ccc3[nH]c(=O)[nH]c3c2)cc1,0.02,-0.15
O=C(/C=C/c1ccc(F)cc1)NC(=S)NC1CCCCC1,0.88,0.64
O=C(NC1CCCCCC1)C(=O)NC1CCCC1,1.08,-0.07
CCOC(=O)C1CCN(CC(=O)c2ccc(O)c(C)c2O)CC1,1.05,0.01
COc1ccc(CCC(=O)Nc2nnc(C(F)(F)F)s2)cc1,0.25,-1.79
O=C(c1ccco1)N1CCN(c2nnc(-c3ccccc3)c3ccccc23)CC1,0.06,-0.19
COc1ccc(C(=O)N(C)C2CCCc3ccccc32)cc1OC1CCN(C(C)C)CC1 (stereo unspecified),0.36,-2.25
COc1ccc(-c2nnc(SCC(=O)Nc3ncc(C(F)(F)F)cc3Cl)n2CC(C)C)cc1,1.47,-0.52
CC(=O)N1CCN(Cc2nc3cc([N+](=O)[O-])ccc3n2C)CC1,1.84,-0.31
COC(=O)c1ccc(CN2C(=O)NC3(CCC(C)CC3)C2=O)cc1 (stereo unspecified),1.21,0.83
Cc1ccccc1N1CCN(C2CCCN(C(=O)CCC3(C)CC3)C2)CC1 (stereo unspecified),0.36,0.26
COc1cc(C2/C(=C(\O)c3ccc4c(c3)OCCO4)C(=O)C(=O)N2c2nnc(C)s2)cc(OC)c1OC (stereo unspecified),0.5,-0.49
Nc1c(-c2ccccc2)cnn1-c1cccc([N+](=O)[O-])c1,0.17,0.54
c1ccc2nc3c(nc2c1)OCC1CCCCN31 (stereo unspecified),0.08,-1.97
CCC(C)NC(=O)CSC1=Nc2ccccc2C2=NC(CC(=O)NCc3ccc(F)cc3)C(=O)N12 (stereo unspecified),0.03,0.51
COc1ccc([C@@H]2[C@@H]3C(=O)N(C(C)(C)C)C(=O)[C@@H]3[C@]3(C)C(=O)N(c4cccc(Cl)c4)C(=O)N23)cc1,0.05,0.05
COc1cccc(NC(=O)NC(C)C2CC3CCC2C3)c1 (stereo unspecified),12.2*,-0.78*
Cn1c(=O)c2ccccc2n(CC(=O)NCCC2=CCCCC2)c1=O,0.66,0.07
CC(=O)Nc1nc2ccc(-c3nc4ccccc4o3)cc2s1,1.27,-1.76
CN(C)c1ccc(C(=O)Nc2ccc(S(=O)(=O)Nc3nccs3)cc2)cc1,0.81,-0.25
COc1ccccc1CN1CCC(n2nccc2NC(=O)CCc2ccccc2)CC1,0.06,0.15
